Screens (PubChem)
PABP FP inh = PABP-poly(A) binding inhibition. PABP-poly(A) RNA binding, fluorescence polarization. inhibition, % at 35 µM. hit rate 1% among 290,000;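 active = 50% or more with normal probe brightness, or confirmed in later tests; inconclusive = above 50% with abnormal brightness, or retests that disagree; inactive = below 50% or failed in later tests; about a fifth of its hits are not listed in these tables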;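 note: calls also rest on retests at 20 µM and on dose response follow-up; controls were probe without protein and protein plus probe with vehicle; some compounds called inactive have numbers as strong as hits; many hits fall short of the cut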
Target sequence (P11940 whole entry, looked up): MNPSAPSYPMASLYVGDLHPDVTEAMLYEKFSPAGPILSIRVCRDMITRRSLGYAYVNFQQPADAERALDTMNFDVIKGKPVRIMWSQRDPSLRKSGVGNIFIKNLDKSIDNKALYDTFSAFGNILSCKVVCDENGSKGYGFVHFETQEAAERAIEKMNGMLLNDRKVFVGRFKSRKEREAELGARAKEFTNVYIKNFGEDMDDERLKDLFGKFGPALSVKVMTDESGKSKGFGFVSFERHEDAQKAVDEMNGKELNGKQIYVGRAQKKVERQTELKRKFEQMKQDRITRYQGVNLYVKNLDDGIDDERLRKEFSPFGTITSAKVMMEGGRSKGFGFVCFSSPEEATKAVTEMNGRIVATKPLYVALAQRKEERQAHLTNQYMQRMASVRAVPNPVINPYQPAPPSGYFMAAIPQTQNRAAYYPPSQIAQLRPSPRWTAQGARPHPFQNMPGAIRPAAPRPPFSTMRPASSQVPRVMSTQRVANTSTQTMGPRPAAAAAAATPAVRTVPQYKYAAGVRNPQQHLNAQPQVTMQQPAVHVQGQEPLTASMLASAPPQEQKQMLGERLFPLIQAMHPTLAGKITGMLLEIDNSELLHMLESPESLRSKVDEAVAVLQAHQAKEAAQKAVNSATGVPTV
Rce1 inhib = inhibitors of yeast Ras-converting enzyme | Q03530 | yeast membranes, quenched prenylated peptide cleavage fluorescence | calls only | hit rate 0.27% among 290,000 | AID 2563;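 active = fall in fluorescence gain of 50% or more versus controls, with final raw signal at or below 3038400; inconclusive = same 50% fall but final raw signal above 3038400; inactive = fall in fluorescence gain under 50%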;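 note: plate controls were neutral control wells for no effect and wells lacking membranes for full effect; tested at 10 µM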
Target sequence (Q03530 whole entry, looked up): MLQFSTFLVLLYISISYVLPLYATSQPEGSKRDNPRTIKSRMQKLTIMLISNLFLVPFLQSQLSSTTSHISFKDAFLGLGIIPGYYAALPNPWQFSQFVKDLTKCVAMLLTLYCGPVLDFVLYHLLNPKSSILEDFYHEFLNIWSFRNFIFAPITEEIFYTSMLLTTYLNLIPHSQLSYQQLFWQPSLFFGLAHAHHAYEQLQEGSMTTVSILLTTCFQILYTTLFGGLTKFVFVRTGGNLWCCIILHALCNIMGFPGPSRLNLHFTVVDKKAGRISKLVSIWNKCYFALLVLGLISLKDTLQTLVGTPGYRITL
CSC inhib = blocks cancer stem cells. cancer stem cell-like cells viability, luminescence. inhibition, % at 7.5 µM. hit rate 1.1% among 300,000;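 active = mean at 75% or more and at least half the replicates too; inconclusive = mean and replicates disagree; tested in HMLE shEcad cells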;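 note: 0% = median of negative and 100% = median of positive control wells; the first replicate is given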
eIF4H inh = inhibitors of RNA binding by human eIF4H; Q15056; eIF4H fluorescence polarization binding assay; inhibition, % at 35 µM; hit rate 0.94% among 290,000; AID 2012;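 active = 50% or more with normal probe brightness, or confirmed in later tests; inconclusive = above 50% with abnormal brightness, or retests that disagree; inactive = below 50% or failed in later tests; about a fifth of its hits are not listed in these tables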;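 note: calls also rest on retests at 20 µM and on dose response follow-up; 0% = protein and probe with vehicle and 100% = probe without protein; strong numbers were not always called active; many hits fall short of the cut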
UUG fidelity = alters start codon recognition fidelity in yeast | S. cerevisiae UUG-firefly luciferase reporter, luminescence/redox ratio | activity score, % at 18.7 µM | hit rate 0.13% among 350,000;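 active = replicate mean at a twofold rise or more, about +100% in these data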;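 note: firefly luciferase made from a UUG start codon reports start codon fidelity; reporter light over untreated wells divided by growth signal over untreated wells; some hits fall short of that in this replicate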
MT1-MMP act inh = blocks activation of human MT1-MMP. GFP/RFP ratio change, % at 20 µM. HT1080 RFP-PRO-GFP cells, GFP/RFP ratio fluorescence, overnight; percent of plate control window, DMSO zero. hit rate 0.061% among 360,000;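 active = GFP/RFP ratio change of at least 30% with cell ATP level not reduced by more than half and red fluorescence within 50% of control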; note: strong numbers were not always called active
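Assay system – RFP-PRO-GFP reporter HT1080 cells · Compound dosing – single dose of 20 µM compound, 1% DMSO final · Incubation – overnight compound exposure at 37 °C · Measure – GFP/RFP fluorescence ratio · Benchmarks – DMSO wells and RFP-L50D-GFP cells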
HIV Env fusion = inhibitors of HIV Env-mediated cell fusion; HeLa-JRFL Env/CEM21 cell fusion, luciferase; inhibition, % at 12.3 µM; hit rate 1.1% among 360,000;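 active = mean replicate inhibition score of at least 50 and every replicate individually at or above 50; inconclusive = only one of the two criteria met; inactive = mean below 50 and not all replicates reaching 50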;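 note: 0% = plate neutral controls and 100% = maraviroc near 300 nM; one replicate is shown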
eIF4H inh retest = second read-out of eIF4H inh, no call of its own (marks repeat the call); inhibition, %; compound at 20 µM; confirmation average;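 mean of two retest wells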
PABP FP inh retest = further read-out of PABP FP inh, marked with its call; inhibition, %; compound at 20 µM; confirmation repeats;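 mean of two retest wells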
MT1-MMP act inh RFP = also measured in MT1-MMP act inh; calls as there; RFP signal change, %; measured here: RFP expression control read;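 0 = vehicle wells; hits needed this value within 50% of zero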
* = called active by the depositor; i = inactive; ? = inconclusive; . = not tested or not shown.

SMILES | PABP FP inh | Rce1 inhib | CSC inhib | eIF4H inh | UUG fidelity | MT1-MMP act inh | MT1-MMP act inh RFP | HIV Env fusion | others
Nc1ccn(C2OC(CO)C(O)C2F)c(=O)n1 (configuration not stated) | . | . | . | . | -5 | -5 | -2 | 75*
CC(=O)Nc1ccc(OCC(O)Cn2cncn2)cc1 (configuration not stated) | -10 | i | -14 | -2 | -13 | 1 | 5 | -2
O=C(Cc1cn2ccsc2n1)NCc1ccccc1 | -5 | i | -3 | 4 | -5 | 2 | 0 | .
COc1cccc(CN2CCC(C(=O)N3CCN(c4ccccc4F)CC3)CC2)c1OC | 21 | i | 22 | 7 | -4 | 1 | 1 | -18
COCCOc1ccc(C(F)(F)F)cc1NC(=O)CN1C(=O)NC2(CCCc3ccccc32)C1=O (configuration not stated) | . | . | 20 | . | . | -2 | -7 | 15
COc1ccc(NC(=O)c2cc(Cl)ccc2Cl)c([N+](=O)[O-])c1 | -7 | i | 2 | -4 | -5 | 3 | 2 | -21
COc1ccc(C2C(C(=O)/C=C/c3ccco3)=C(O)C(=O)N2CCN2CCOCC2)cc1 (configuration not stated) | 0 | i | -1 | 64 | . | -4 | 3 | 2 | eIF4H inh retest=6;PABP FP inh retest=6
CC1=CC(C)(C)n2c(O)c(N=N)c3c(C)ccc1c32 | -12 | i | 6 | -4 | -6 | -2 | -5 | 12
O=[N+]([O-])c1cc(C(F)(F)F)ccc1Sc1nccn1Cc1ccccc1 | -2 | i | 0 | -6 | -23 | 1 | 2 | -116
COc1ccc(Cl)cc1NC(=O)Cn1nc(-c2ccc(C)cc2)n(C)c1=S | 5 | i | . | -9 | 2 | 2 | -7 | 50
CC(C)N(Cc1ccccc1)C(=O)CN1C(=O)NC2(CCOc3ccccc32)C1=O (configuration not stated) | . | . | 3 | . | -2 | 1 | 0 | -6
CCOC(=O)C1CCN(Cc2cnc(Oc3ccc(N)cc3)s2)CC1 | 23 | i | . | -10 | -4 | 3 | 2 | -90
COc1ccc(F)cc1C(=O)C1CCCN(Cc2cccn2-c2ccccn2)C1 (configuration not stated) | -6 | i | -13 | -14 | -6 | 0 | 0 | 23
COc1ccc(NC(=O)CCSc2ccc(C)cc2)cc1 | -6 | i | 9 | -12 | . | -1 | 4 | -20
CCCCC(=O)Nc1nnc(SCC(=O)Nc2ccc(OC)cc2)s1 | -10 | i | -5 | 5 | -15 | 5 | 2 | -180
COc1ccc(S(=O)(=O)N(CC(=O)NCCC(C)C)c2ccccc2)cc1OC | 0 | i | -15 | -9 | . | -1 | -5 | 2
COc1ccccc1-c1cnc(C(O)c2cc(Cl)cc(Cl)c2)[nH]1 (configuration not stated) | . | . | . | . | -23 | 11 | 0 | 6
Cc1ccc(S(=O)(=O)Nc2cccc3cccnc23)cc1 | -14 | i | 78* | 20 | -30 | 2 | 1 | 1
COC(=O)c1oc2ccc(Cl)cc2c1N | -3 | ? | 2 | -18 | -12 | 4 | 4 | -297
O=C(C=C1NCCN1)c1ccccc1 | . | i | -9 | . | -4 | -2 | -1 | 3
CCN(C(=O)c1ccc(S(C)(=O)=O)cc1)C12CC3CC(CC(C3)C1)C2 | -14 | i | 0 | -9 | . | 3 | 3 | -13
O=C(/C=C\c1ccc(-c2cccc([N+](=O)[O-])c2)o1)N1CCOCC1 | -1 | i | -5 | -1 | . | 7 | 3 | -28
Cc1c(C(=O)NCCSCc2cccc(C(F)(F)F)c2)cnn1-c1ccc(F)cc1 | -5 | i | 4 | -4 | -18 | 4 | -7 | 25
COc1ccc2cc3cc(C(=O)N4CCCCC4C)oc3nc2c1 (configuration not stated) | . | i | 7 | . | -36 | -2 | -4 | -61
COc1ccc(NC(=O)Oc2cc(C)ccc2C(C)C)cc1 | 3 | i | 9 | -15 | 5 | 2 | 4 | 9

Next section, overlapping the part above by four compounds.
SMILES | PABP FP inh | Rce1 inhib | CSC inhib | eIF4H inh | UUG fidelity | MT1-MMP act inh | MT1-MMP act inh RFP | HIV Env fusion | others
O=C(/C=C\c1ccc(-c2cccc([N+](=O)[O-])c2)o1)N1CCOCC1 | -1 | i | -5 | -1 | . | 7 | 3 | -28
Cc1c(C(=O)NCCSCc2cccc(C(F)(F)F)c2)cnn1-c1ccc(F)cc1 | -5 | i | 4 | -4 | -18 | 4 | -7 | 25
COc1ccc2cc3cc(C(=O)N4CCCCC4C)oc3nc2c1 (configuration not stated) | . | i | 7 | . | -36 | -2 | -4 | -61
COc1ccc(NC(=O)Oc2cc(C)ccc2C(C)C)cc1 | 3 | i | 9 | -15 | 5 | 2 | 4 | 9
COc1cccc(CSC(C(=O)O)c2ccccc2)c1 (configuration not stated) | . | . | . | . | 6 | 0 | -4 | -14
CN1CCN(C(CNS(=O)(=O)c2ccc(F)cc2)c2cccnc2)CC1 (configuration not stated) | 6 | i | -20 | 9 | -9 | -5 | 0 | 8
O=C(Cn1[nH]c(=O)c2ccccc2c1=O)NC1CCCCCC1 | -2 | i | 4 | -5 | 1 | -9 | -30 | .
CC(=O)Oc1[nH]c(=O)c2cccc3c2c1CCC3 | . | . | . | . | -10 | 0 | 3 | -77
COC(=O)C1CCCN1C(=O)COc1ccc(Cl)cc1Br (configuration not stated) | 4 | i | -13 | -3 | 3 | 1 | 3 | -10
O=C(Nc1ccccc1)NC1CCCCC1 | -2 | i | -12 | -5 | -16 | 3 | 2 | .
Cc1cccc2cc(COC(=O)c3ccccn3)c(=O)[nH]c12 | -1 | i | -1 | -8 | 2 | -1 | 4 | .
O=[N+]([O-])c1ccc2[nH]c3nc4ccccc4nc3c2c1 | 12 | i | 2 | 12 | 13 | -1 | -1 | -15
O=C(CSc1nnc(-c2cnccn2)n1Cc1ccco1)c1ccc(Cl)c(Cl)c1 | 21 | i | 1 | 3 | -13 | -1 | 1 | -34
O=C(CSc1nncs1)Nc1ccc2c(c1)OCCO2 | -4 | i | . | -2 | -16 | 0 | -1 | .
O=C(NCCSCc1c(F)cccc1Cl)c1ccco1 | -2 | i | 9 | 1 | -17 | 3 | 4 | -94
O=[N+]([O-])c1ccc(Cc2nnc(-c3ccccc3Cl)o2)cc1 | -2 | i | 5 | -10 | . | 1 | -5 | -25
CC(C)C[C@H](NC(=O)N1CCn2c1nc1ccccc12)C(=O)NCc1ccccc1 | 6 | i | -24 | -2 | -4 | -2 | -3 | 1
Cc1noc(C)c1CSc1ccccc1C(=O)Nc1nccs1 | 2 | i | . | -11 | -5 | -3 | 5 | -39
O=C(Nc1ccc(Cl)cc1C(=O)NCc1cccnc1)c1ccco1 | -2 | i | . | 9 | -3 | 2 | 3 | -56
O=C(c1cnccn1)N1CCc2ccccc21 | 14 | i | -15 | 13 | -15 | 2 | -6 | -9
Cc1cc(/C=N/n2cnnc2)c(C)n1-c1cccc(C(=O)O)c1 | 15 | i | 0 | -20 | . | -7 | -7 | .
CC1CN(S(=O)(=O)c2ccc(C(=O)Nc3nncs3)cc2)CC(C)O1 (configuration not stated) | . | . | -5 | . | -16 | 0 | 0 | .
CCN1C(=O)/C(=C2/C=Cc3cc(C)ccc3N2CC)N(C)C1=S | 17 | i | 18 | 10 | 4 | 7 | 7 | 18
CC(NC(=O)CCNC(=O)c1ccccc1Cl)C1CC2CCC1C2 (configuration not stated) | -2 | i | -1 | 2 | -15 | -3 | 2 | 5
NC(CCc1ccccc1)c1csc(NC(=O)Nc2ccccc2Oc2ccccc2)n1 (configuration not stated) | . | . | . | . | -7 | -3 | -17 | 90*
CCOC(=O)CC1(NC(=O)c2cc(COc3ccc(F)c(F)c3)on2)CCCCC1 | -6 | i | 15 | -14 | -7 | -1 | -8 | 16
COc1ccc([N+](=O)[O-])cc1-n1cccc1 | 7 | i | -16 | 3 | . | 3 | 3 | -21
Cc1ccc(-n2nnnc2Sc2nc([N+](=O)[O-])nn2C)cc1 | 3 | i | -9 | 8 | -15 | -24 | -6 | -56
CCOc1ccccc1CN1CCNC(=O)C1CC(=O)NCCC1=CCCCC1 (configuration not stated) | 2 | i | 7 | -2 | 1 | 1 | 1 | 1
Other compounds follow.
SMILES | PABP FP inh | Rce1 inhib | CSC inhib | eIF4H inh | UUG fidelity | MT1-MMP act inh | MT1-MMP act inh RFP | HIV Env fusion | others
CCOC(=O)C1CCCN(C(=O)CCCOc2cc(=O)n(C)c3ccccc23)C1 (configuration not stated) | -6 | i | -8 | -6 | -19 | 5 | 1 | -40
CCSc1nnc(NC(=O)C(C)Sc2nc3ccccc3[nH]2)s1 (configuration not stated) | 14 | i | 20 | 15 | . | -3 | -1 | 28
O=C(CSc1nnc(NC(=O)c2ccco2)s1)Nc1ccc2c(c1)OCCO2 | -4 | i | 14 | -2 | -10 | 0 | 3 | 5
Cc1ccc(-n2ccn(CC(=O)NCCc3ccccc3)c(=O)c2=O)cc1C | 8 | i | -11 | 3 | 0 | 1 | 0 | -27
COC(=O)c1cc(NC(=O)c2cccc(C(F)(F)F)c2)c(=O)oc1C | 10 | i | -1 | -13 | . | -3 | 6 | -15
CCOc1ccc(N2CC(=O)SC2=S)cc1 | 3 | i | 10 | -6 | . | 37* | 31* | .
CCOC(=O)N1CCN(c2ccc(S(=O)(=O)N(Cc3ccccc3)Cc3ccccc3)cn2)CC1 | 6 | i | -5 | 1 | 0 | -25 | -34 | .
Cn1c(=O)c2c(nc(Oc3cccc(Br)c3)n2C)n(C)c1=O | -7 | i | -11 | 5 | 1 | -1 | 0 | 0
CC(C)N1CCC(C)(C(=O)Nc2cccc3c2CCCC3)C1 (configuration not stated) | . | . | . | . | 8 | -3 | 3 | -20
CCOC(=O)c1ccc(NC(=O)CSc2ccc(-c3ccncc3)nn2)cc1 | 8 | i | -3 | 2 | -11 | 0 | -8 | -14
Cc1cc(F)ccc1S(=O)(=O)N1CCCOC1CNC(=O)C(=O)NCCC1=CCCCC1 (configuration not stated) | 1 | i | 6 | -1 | . | -1 | -3 | 16
COc1ccc(-c2cc(C(=O)Nc3cc(OC)c(OC)c(OC)c3)[nH]n2)c(C)c1 | . | . | . | . | -14 | 4 | 0 | 0
COc1ccc2c(c1OC)C(=O)N1c3ccccc3C(=O)N(c3ccc(F)cc3)C21 (configuration not stated) | 3 | i | 11 | -7 | -14 | -1 | 1 | .
COc1ccc(OC)c(NC(=O)CCN2CCN(CCO)CC2)c1 | -5 | i | -33 | 69 | -2 | -2 | 1 | -91 | eIF4H inh retest=1;PABP FP inh retest=0
COc1ccc(-c2nn(-c3ccccc3)cc2CNCc2cccnc2)c(F)c1 | -12 | i | -21 | -13 | . | -4 | 1 | 15
O=c1c2ccccc2[nH]c(=S)n1CCCn1ccnc1 | 6 | i | 3 | 7 | 8 | -2 | 1 | -3
CCOc1ccc(NC(=O)CN2CCc3ccccc3C2)cc1 | -5 | i | 27 | -7 | -26 | 1 | 5 | -62
CC(=O)NC(CC(=O)OCC(=O)Nc1ccc2c(c1)OCO2)c1ccccc1 (configuration not stated) | -3 | i | . | 0 | -11 | -2 | 0 | 5
CCOC(=O)/C=C/C(=O)OCc1csc(CC(=O)Nc2ccccc2C)n1 | 3 | i | 21 | 0 | -18 | 0 | 6 | 6
Cc1cccc(C(=O)NCCNC(=O)c2cccnc2)c1 | -1 | i | -10 | 4 | -10 | 3 | 4 | -33
C=CCC[C@@H](Cc1ccc(F)cc1)C(=O)OC[C@H](Cc1c[nH]c2ccccc12)NC(=O)[C@@H](CC=C)CC(=O)N[C@@H](CO)Cc1ccccc1 | . | . | 7 | . | -9 | 4 | -8 | 31
